# 2A Renilla: Primary qHTS Assay for Foot and Mouth Disease Virus Antivirals against NCGC Sytravon and CBC Compound Libraries: Renilla Luciferase Signal. HEK cells with a luciferase reporter of 2A StopGo recoding. Potency, µM (top dose mostly 57.5 µM), inactives show top-dose signal change, negative = less light. hit rate 0.32% among 120,000. AID 1745857, 2022; active means well fitted falling curve with a large enough effect; inconclusive means small, poorly fitted or top-dose-only effect; inactive means no such curve, though single readings can be large or run the other way; further: nearly all actives have a fitted effect of over 55% in size; overnight with compound
# 2A firefly: Primary qHTS Assay for Foot and Mouth Disease Virus Antivirals against NCGC Sytravon and CBC Compound Libraries: Firefly Luciferase Signal. HEK cells with a luciferase reporter of 2A StopGo recoding. Potency, µM (top dose mostly 57.5 µM), for inactives: at the highest dose signal change, negative = less light. hit rate 0.23% among 120,000; active = well fitted falling curve with a large enough effect; inconclusive = small, poorly fitted or top-dose-only effect; inactive = no such curve, though single readings can be large or run the other way; further: nearly all actives have a fitted effect of over 60% in size; overnight with compound
# An asterisk follows results filed as active; ? = inconclusive; & = joins results of further samples; [ ] = another dose, or the depositor's remark. On the % scale 0 is the no-effect control and ±100 the full control effect; potency means the concentration at half of the fitted maximal effect. These rows are one share of the data; the hit share may differ from the screen's.
# Order of values: 2A Renilla | 2A firefly
Cc1nn(CC(=O)Nc2ccc3c(c2)nc(CN2CCCC2)n3C)c(=O)c2ccccc12
→ -16.5% | -6.5%
O=C(CC1C(=O)OCCN1Cc1ccccc1)Nc1ccc(Cl)cc1Cl (centres undefined)
→ 78.1%[activator] | 3.6%
CN=C(NC#N)NCCSCc1csc(N=C(N)N)n1
→ -2.5% | -15.0%[11.5 µM]
O=C(NCCCc1nc2ccccc2n1Cc1ccccc1F)c1ccco1
→ ? | ?
S=c1sc2c(s1)SCCCS2
→ 1.1% | 30.6%[activator]
CCCCCCC(C)NC(=O)Cc1cccs1 (centres undefined)
→ 17.3% | 0.6%
Cc1ccccc1N1CC(c2nc3ccccc3n2CCC2CCCCC2)CC1=O (centres undefined)
→ ? | ?
C=CCOc1cccc(NC(=O)c2ccc(OCC)cc2)c1
→ 13.1% | 123.8%[activator]
COc1cccc(CNC(=O)Cn2ncc3c4ccccc4n(Cc4ccccc4)c3c2=O)c1
→ -5.2% | -5.8%
Cc1cccc(-c2noc(CN(C)C(=O)COc3ccc(Cl)cc3C)n2)c1
→ -29.7% | -18.4%
C#CCN1CCC(C(=O)NCCN2CCCCC2)CC1
→ -16.7% | -3.1%
Cc1cccc(NC(=O)N2CCC(N3CCN(Cc4ccccc4)C(=O)C3=O)CC2)c1C
→ -10.8% | -1.7%
CCc1ccc(C(=O)c2cn(CC(=O)Nc3ccc4c(c3)OCO4)c3ccc(F)cc3c2=O)cc1
→ 4.2% | -18.0%
COc1ccc(OC)c(NC(=O)Nc2ccc(CN3CCOCC3)cc2)c1
→ 0.9% | 27.1%
CCOc1ccc(-c2nc(-c3ccccc3)c(-c3ccccc3)[nH]2)cc1OCC
→ 0.0% | -3.1%

# A different layout for 5 compounds above.
mol	2A Renilla	2A firefly
Cc1cccc(-c2noc(CN(C)C(=O)COc3ccc(Cl)cc3C)n2)c1	-29.7%	-18.4%
Cc1nn(CC(=O)Nc2ccc3c(c2)nc(CN2CCCC2)n3C)c(=O)c2ccccc12	-16.5%	-6.5%
CCc1ccc(C(=O)c2cn(CC(=O)Nc3ccc4c(c3)OCO4)c3ccc(F)cc3c2=O)cc1	4.2%	-18.0%
S=c1sc2c(s1)SCCCS2	1.1%	30.6%[activator]
Cc1cccc(NC(=O)N2CCC(N3CCN(Cc4ccccc4)C(=O)C3=O)CC2)c1C	-10.8%	-1.7%

# (listing goes on)
# Order of values: 2A Renilla | 2A firefly
O=C(CSc1nnnn1C1CCCCC1)N1CCN(C(=O)C2COc3ccccc3O2)CC1 (centres undefined)
→ -0.6% | 44.4%[activator]
O=C(NCCc1ccc(F)cc1)C(=O)NCC(c1ccco1)S(=O)(=O)c1ccccc1 (centres undefined)
→ -9.7% | -19.9%
CCc1cccc(C)c1NC(=O)Cn1nc(C(=O)O)c2ccccc2c1=O
→ -6.8% | 4.0%
CNS(=O)(=O)c1ccc(C)c(C(=O)NCC2(c3ccccc3)CC2)c1
→ 53.0%[activator] | 4.8%
CCOC(=O)c1noc2ncnc(N3CCN(c4cccc(Cl)c4)CC3)c12
→ -8.2% | -12.2%
COc1cccc(C(=O)NC(=O)Nc2ccc(-c3cc(C(F)(F)F)nn3-c3ccccc3)cc2)c1
→ -11.5% | 13.9%
Cc1nn(C)c2c1c(C(F)(F)F)cc(=O)n2Cc1cccc(Br)c1
→ -18.6% | -22.6%
COc1ccc(Br)cc1CNC(=O)CCCn1c(=O)c2cccn2c2ccccc21
→ 133.6%[activator] | -25.6%
c1ccc(OCc2nc(-c3ccc4c(c3)OCCCO4)cs2)cc1
→ -7.5%[1.06 µM] | 2.1%
CCCN1CCN(C(=O)CC2CCN(C(=O)c3ccc4nc(-c5ccc(C)cc5)oc4c3)CC2)CC1
→ 19.5% | 111.1%[activator]
CCOC(=O)c1cccc(NC(=O)C2CCN(S(=O)(=O)c3ccc4c(c3)oc(=O)n4C)CC2)c1
→ 17.9% | 1.0%
CCN1C(=O)C(Cc2c(OC)cc(OC)cc2OC)c2ccccc21 (centres undefined)
→ 63.6%[activator] | 7.7%
C=C(C)C[C@H]1CC=C[C@H](CC(=C)C)N1
→ 4.9% | 5.2%
CC(NC(=O)CCSc1nc(Cl)nc2nc[nH]c12)c1ccccc1 (centres undefined)
→ 13.8% | 13.5%
CCN(CC)S(=O)(=O)c1ccc(N2CCCC2)c(NC(=O)Cc2ccccc2C)c1
→ 24.4% | 9.7%
CC(c1ccccc1)n1cc2c(c1-c1ccccc1Br)c(=O)n(C)c(=O)n2C (centres undefined)
→ -20.7% | -25.1%
Cn1nc(C(=O)NCc2nnc3n2CCCCC3)c2ccccc2c1=O
→ 0.8% | -5.2%
Cc1cc(S(=O)(=O)NCC(C)O)c(C)cc1Cl (centres undefined)
→ 286.0%[activator] | 6.7%
COc1cccc(NC(=O)Nc2ccc3snnc3c2)c1
→ -6.3% | 31.8%
Cc1cc(=O)oc2cc(OCC(=O)NCC(C)(c3ccccc3)c3ccccc3)ccc12
→ -13.2% | -6.8%
O=C(CCc1ncc(-c2ccc(Cl)cc2)o1)N1CCOCC1
→ -5.2% | 23.4%
Cc1ccc(C(=O)Nc2ccccc2SCc2cc(=O)n3oc(C)cc3n2)cc1
→ -14.4% | -9.6%
COc1cc(C2NC(=O)N(C)C3=C2C(=O)N(c2cccc(Cl)c2)C3)ccc1O (centres undefined)
→ -0.1% | 6.4%
CC(C)COc1ccc(Nc2ncnc3ccc(Br)cc23)cc1
→ -19.3% | 9.6%
O=C(NCCNS(=O)(=O)c1cccs1)c1cc2ccccc2[nH]1
→ 36.5%[activator] | -5.4%
Cc1ccc(C(=O)Nc2nnc(SCc3cc(=O)n4ccc(C)cc4n3)s2)cc1
→ -10.1% | 54.0%[activator]
CCn1c(CN(Cc2ccccc2)Cc2ccccc2)nc2c1c(=O)[nH]c(=O)n2C
→ 9.3% | 17.2%
NS(=O)(=O)c1ccc(NNC(=O)/C=C/c2cccs2)c([N+](=O)[O-])c1
→ -14.2% | 63.2%[activator]
Cc1ccc(C)c(OCCSc2nc3ccccc3n2CC(=O)N2CCOCC2)c1
→ 18.5% | -7.7%
CC(C)CCNC(=O)C1CCC(Cn2c(=O)c3sccc3n(CC(=O)NC(C)C)c2=O)CC1 (centres undefined)
→ -10.1% | 23.6%
COc1cccc(C(=O)Nc2nnc(CCc3ccccc3)s2)c1
→ -8.3% | 36.2%[activator]
COc1ccc(OC)c(CNCc2cccn2-c2nnc(N3CCN(C)CC3)s2)c1
→ -5.7% | 3.6%
COc1ccccc1C(C)NC(=O)CN1CCN(c2ccc([N+](=O)[O-])c3cnccc23)CC1 (centres undefined)
→ 59.4%[activator] | 283.1%[activator]
O=C(CSc1ncnc2ccccc12)NC1CCS(=O)(=O)C1 (centres undefined)
→ ? | ?
Cc1cc2oc(C(=O)Nc3nonc3-c3cccs3)c(C)c2cc1C
→ 5.4% | -3.1%
Cc1ccc(CCNC(=O)CCCn2c(=O)c3ccccc3n(Cc3ccccc3C#N)c2=O)cc1
→ -6.0% | -17.8%
CCc1ccc(NC(=O)Cn2c(=O)oc3cc(S(=O)(=O)N4CCCCCC4)ccc32)cc1
→ -8.1% | -29.8%
Cc1ccc(-c2cnc(CCC(=O)Nc3cc(Cl)c(N)c(Cl)c3)o2)cc1C
→ 7.1% | 42.5%[activator]
CCOc1ccc(-c2cccc(NS(=O)(=O)c3ccccc3C(F)(F)F)c2)nn1
→ 155.5%[activator] | 11.2%
Cc1cc2c(cc1S(=O)(=O)CCC(=O)NCCc1ccccc1)OCC(=O)N2
→ -1.5% | -0.7%
CNC(=O)CN(C)S(=O)(=O)N1CCCC(C)C1 (centres undefined)
→ -6.3% | -4.2%
CCCCn1nc(C(=O)Nc2ccc3nc(N4CCOCC4)sc3c2)c2ccccc2c1=O
→ 6.0% | 27.2%
COc1ccc(CNC(=O)c2cccc3ccccc23)cc1
→ 37.1%[activator] | 24.7%
Cc1ccc(OCC(=O)NCC(c2ccc(Cl)cc2)N2CCOCC2)cc1C (centres undefined)
→ 9.9% | -5.7%
CC(NC(=O)CNC(=O)OC(C)(C)C)c1ccccc1 (centres undefined)
→ 7.7% | 6.3%
CONC(=O)c1ccc2c(c1)NC(=O)CS2
→ 1.2% | 24.7%
CCOC(=O)c1ccc(N2CCN(CC)CC2)c(NC(=O)COc2ccc(C(C)(C)C)cc2)c1
→ 12.6% | -2.7%
CCC(C)Nc1oc(-c2ccc(S(=O)(=O)N3CCc4ccccc4C3)cc2)nc1C#N (centres undefined)
→ 78.4%[activator] | 200.9%[activator]
Cc1c(-c2ccccc2)[nH]c2ccccc12
→ 9.6% | 0.0%
COc1ccc(C(=O)N(Cc2cc(OC)c(OC)c(OC)c2)CC2CCCO2)cc1 (centres undefined)
→ -6.1% | -18.4%
Cc1cccc(Nc2nc3ccccc3nc2NS(=O)(=O)c2ccc(F)cc2)c1
→ -2.7% | 2.1%
COc1ccc(-c2cc3ccc(OC)cc3oc2=O)c(OC)c1
→ 147.8%[activator] | 131.4%[activator]
CCOc1cc(/C=C2\NC(=O)NC2=O)ccc1OCc1ccc(C(=O)O)cc1
→ -4.3% | 20.6%
Cc1ccc(-c2cc(C(=O)NC(C)C)c3ccccc3n2)c(C)c1
→ 2.7% | 3.5%
CCOc1ccccc1CNC(=O)c1cc(C)nc2c(C)cccc12
→ 71.0%[activator] | -9.6%
Cc1ccc(C)c(NC(=O)CCc2c[nH]c3ccccc23)c1
→ 1.3% | 13.4%
Cc1cc(Cl)ccc1NC(=O)c1cc2ccccn2n1
→ ? | 84.9%[activator]
Cc1c(NC(=O)c2cc3cc(F)ccc3[nH]2)c(=O)n(-c2ccccc2)n1C
→ 19.7% | 0.0%
Cc1ccc2nc(N3CCN(c4ccccc4F)CC3)c3nnnn3c2c1
→ -9.1% | -17.9%
Cc1ccc(C2CC(=O)N(c3ccc(F)cc3)C3=C2C(=O)CCC3)cc1 (centres undefined)
→ -3.3% | -3.9%

# Compound profiles (already shown):
# CCOc1cc(/C=C2\NC(=O)NC2=O)ccc1OCc1ccc(C(=O)O)cc1 is listed as 2A Renilla: -4.3%; 2A firefly: 20.6%
# COc1ccc(C(=O)N(Cc2cc(OC)c(OC)c(OC)c2)CC2CCCO2)cc1 (centres undefined) is listed as 2A Renilla: -6.1%; 2A firefly: -18.4%

# Additional entries follow:
# Order of values: 2A Renilla | 2A firefly
COc1ccc(NC(=O)CC2C(=O)N(c3ccc(OC)cc3)C(=O)N2CCC2=CCCCC2)cc1 (centres undefined)
→ 12.5% | -8.0%
CCc1c(-c2ccccc2)nc2ccccc2c1C(=O)NCCc1ccccc1
→ 20.8% | 29.7%
COc1ccc(C(=O)c2oc3ccccc3c2NC(=O)COc2ccc(F)cc2)cc1
→ 5.4% | 10.6%
COC(=O)c1ccccc1NC(=O)c1nn(C)c2c1COc1ccccc1-2
→ -16.2% | -16.9%
O=C(/C=C/c1cccc2ccccc12)c1cccs1
→ 43.4%[activator] | 160.7%[activator]
O=C(CCCN1C(=O)NC2(CCCC2)C1=O)N1CCC(c2nc3ccccc3o2)CC1
→ -8.5% | -2.3%
COCCn1cnc2c1c(=O)n(CC(=O)OCc1cc(C)cc(C)c1)c(=O)n2Cc1ccccc1
→ -3.8% | -1.5%
Cc1ccc(-n2nc(CO)c(C(=O)NCc3cccs3)n2)cc1C
→ 10.9% | 27.9%
COc1ccc(NC(=O)[C@@H](c2ccccc2)N2Cc3ccccc3C2=O)cc1OC
→ 17.2% | -16.2%
CCOC(=O)C1=C(CN2CCN(C(=O)OCC)CC2)NC(=O)NC1c1cccc(OC)c1OC (centres undefined)
→ 0.5% | -1.2%
Cc1ccc(C2C(C#N)=C(N)Oc3cc(C)n(C)c(=O)c32)s1 (centres undefined)
→ -6.5% | 9.7%
CC(C)c1ccccc1NC(=O)C1CC2CCC1C2 (centres undefined)
→ 5.5% | 35.4%[activator]
O=C(c1[nH]c2ccccc2c1Cl)N(Cc1ccccc1)Cc1ccco1
→ 271.8%[activator] | 11.5%
Cc1ccc(C)c(Cn2c(=O)n(-c3ccc(F)cc3)c(=O)c3sc4ccccc4c32)c1
→ -8.3% | 16.2%
CN1C(=O)N(c2cccc(Cl)c2)C(C)(O)CC1(C)C (centres undefined)
→ -8.3% | 3.8%
Cc1cc(OC(C)C(=O)NCCCN(C)C)c2c(C)c(C)c(=O)oc2c1 (centres undefined)
→ 2.9% | 2.0%
Cc1cccc(Nc2nc(NC3CCCCCC3)nc3c2cnn3-c2ccccc2)c1
→ 4.7% | 1.7%
COC(=O)c1cc2sc(C)cc2n1CC(=O)Nc1ccc(C)cc1Cl
→ 6.3% | 17.3%
CC(=O)N1CCC2(CC1)OC(=O)C(C)=C2C(=O)NCc1ccccc1Cl
→ 5.4% | 3.9%
Cc1cc(C(=O)N2CCN(c3ncccn3)CC2)c2c(C)nn(C)c2n1
→ -14.6% | -13.5%
O=C(NCC(c1cccs1)S(=O)(=O)c1ccccc1)c1ccc(C(F)(F)F)cc1 (centres undefined)
→ -10.6% | -25.9%
Cc1cc(NC(=O)c2cccc(OC(C)C)c2)no1
→ -6.4% | 91.2%[activator]
CC(C)c1cc(=O)oc2cc(OS(=O)(=O)c3ccc(F)cc3)ccc12
→ 9.6% | 69.6%[activator]
CN(C(=O)Cn1c(=O)c2c(ncn2C2CCCC2)n(Cc2ccccc2)c1=O)C1CCS(=O)(=O)C1 (centres undefined)
→ 5.7% | 26.0%
COc1ccc2[nH]c(=O)c(CN(C(=O)c3cccnc3)C3CCCCC3)cc2c1
→ 21.3% | 27.6%
N#Cc1ccccc1COC(=O)c1ccc(Cl)cc1F
→ -4.2% | 17.5%
CCC1CN(C(=O)Nc2cc(Cl)ccc2C(=O)OC)c2ccccc2S1 (centres undefined)
→ -10.8%&16.8% | -8.2%&-2.7%
